# Mtb betalactam – beta-lactam sensitization of Mtb H37Rv. 330,000 compounds, 0.27% hits. inhibition, % at 25 µM. M. tuberculosis H37Rv growth with meropenem, percent inhibition; hits of this screen are not shown here. AID 434955;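 active = about 74% or more and at least 40 points above the plate without the antibiotic, then above 30% in a dose series; inconclusive = first-round hits that could not be retested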;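 also: growth measured after seven days incubation then overnight dye step; 0% = bacteria only wells and 100% = bacteria with antibiotic; twin plates without the antibiotic show which effects depend on it; some results filed as inactive read as strong as hits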
# YopH PTP inh – YopH (Yersinia) phosphatase inhibition; fluorescence Ex485/Em525; 140,000 compounds, 0.16% hits; inhibition, %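 (about 10 µM by stock and volumes)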;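 active = inhibition of 50% or more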;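 also: controls were vehicle for no effect and minimum signal wells for full effect; inactives centre near -20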
# Arbovirus anti – arbovirus infection inhibition | arbovirus infection cell-based antiviral screen | inhibition, % at 10 µM | 200,000 compounds, 0.37% hits | AID 1251;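 active = inhibition from about 30%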;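 also: bluetongue infection of BSR cells; cell survival read as ATP light after 72 h; 0% = infected wells without compound and 100% = uninfected wells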
# RecA intein inh – Mtb RecA intein splicing inhibition; P9WHJ3; cell-free RecA intein splicing, fluorescence; inhibition, %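 (about 9 µM by stock and volumes)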; 290,000 compounds, 0.75% hits; in the data active = inhibition above about 30%; inconclusive = no clear call, values can overlap the other calls;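 also: 0% = vehicle wells and 100% = reference inhibitor control wells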
# Target sequence (P9WHJ3 whole entry, looked up): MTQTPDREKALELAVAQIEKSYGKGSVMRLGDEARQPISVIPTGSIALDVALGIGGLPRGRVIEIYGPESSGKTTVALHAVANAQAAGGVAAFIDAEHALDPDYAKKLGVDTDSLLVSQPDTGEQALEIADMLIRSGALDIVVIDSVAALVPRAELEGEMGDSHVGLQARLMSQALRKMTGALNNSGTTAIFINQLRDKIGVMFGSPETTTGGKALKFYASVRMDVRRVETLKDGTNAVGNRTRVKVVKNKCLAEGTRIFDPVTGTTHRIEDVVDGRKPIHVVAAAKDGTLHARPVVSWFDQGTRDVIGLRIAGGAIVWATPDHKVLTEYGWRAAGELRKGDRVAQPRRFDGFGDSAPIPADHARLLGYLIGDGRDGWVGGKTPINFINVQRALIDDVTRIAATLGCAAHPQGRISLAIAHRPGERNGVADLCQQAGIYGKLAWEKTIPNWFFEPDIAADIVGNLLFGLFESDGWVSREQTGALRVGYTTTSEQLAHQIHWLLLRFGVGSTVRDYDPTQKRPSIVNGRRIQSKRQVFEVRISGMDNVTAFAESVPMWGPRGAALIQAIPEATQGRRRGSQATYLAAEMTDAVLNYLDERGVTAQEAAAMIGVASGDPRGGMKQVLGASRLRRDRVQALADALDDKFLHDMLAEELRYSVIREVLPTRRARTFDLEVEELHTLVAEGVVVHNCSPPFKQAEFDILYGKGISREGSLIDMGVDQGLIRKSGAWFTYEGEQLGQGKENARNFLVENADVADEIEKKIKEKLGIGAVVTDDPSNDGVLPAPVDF
# Mtb H37Rv – M. tuberculosis H37Rv growth inhibitors, H37Rv strain (AID 1626); one-dose inhibition, % at 10 µM; IC50 in µM for titrated hits; 220,000 compounds, 0.95% hits; M. tuberculosis H37Rv growth inhibition; higher % means a stronger effect;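 active = confirmed in a dose series; inconclusive = inhibition above 80% but not taken into the dose series; inactive = below 80% or under 30% at every dose of the series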;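 also: bacteria incubated seven days before Alamar blue readout; 0% = bacteria only wells and 100% = bacteria with antibiotic wells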
# Arbovirus anti repeat – second read-out of Arbovirus anti, no call of its own (marks repeat the call); inhibition, %; measured here: 10K subset replicate screen; many hits read low in the repeat;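 first of two repeat runs on a subset; 0% = infected and 100% = uninfected wells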
# * hit, by the source's call; ? = inconclusive; . = no result given.
# Sample of the layout:
SMILES,Mtb betalactam,YopH PTP inh,Arbovirus anti,RecA intein inh,Mtb H37Rv,others
CC(=O)N1CCCc2cc(S(=O)(=O)N3CCCC(C(=O)NCc4ccccc4)C3)ccc21 (centres undefined),-1,.,.,-1.2,.,
CC(=O)NC(Cc1c[nH]c2ccccc12)C(=O)OCC(=O)Nc1cc(C)on1 (centres undefined),55,-28,3,-2.6,-5%,
COC(=O)c1c(C)nc(C)c(C(=O)OC)c1-c1cccs1,7,.,-1,-4.3,-1%,
O=c1c(C=NCCCO)c(-c2ccccc2)[nH]n1-c1nc2ccccc2s1,14,.,3,3.2,2%,

# The list itself, from the first entry:
SMILES,Mtb betalactam,YopH PTP inh,Arbovirus anti,RecA intein inh,Mtb H37Rv,others
CC(=O)N1CCCc2cc(S(=O)(=O)N3CCCC(C(=O)NCc4ccccc4)C3)ccc21 (centres undefined),-1,.,.,-1.2,.,
CC(=O)NC(Cc1c[nH]c2ccccc12)C(=O)OCC(=O)Nc1cc(C)on1 (centres undefined),55,-28,3,-2.6,-5%,
COC(=O)c1c(C)nc(C)c(C(=O)OC)c1-c1cccs1,7,.,-1,-4.3,-1%,
O=c1c(C=NCCCO)c(-c2ccccc2)[nH]n1-c1nc2ccccc2s1,14,.,3,3.2,2%,
CC(=O)Nc1cc2nn(-c3ccccc3)nc2cc1C,9,.,.,-2.3,.,
CCn1c(COc2cccc3ccccc23)nnc1SCC(N)=O,4,-23,5,2.6,-13%,
O=C(Nc1ccccc1Oc1ccsc1C(=O)O)c1ccccc1,-2,.,.,-0.2,.,
Cc1ccc(CCC2C3=C(CCCC3=O)OC3=C2C(=O)CCC3)cc1,7,-19,6,-0.5,8%,
Cc1ccc(C(=O)C(C)OC(=O)Cn2[nH]c(=O)c3ccccc3c2=O)cc1 (centres undefined),-4,.,.,1.7,.,
Clc1ccc(Cl)c(-c2ccc(/C=N/c3ncn[nH]3)o2)c1,31,-42,-7,-0.2,7%,
CC(C)CN(C(=O)COC(=O)Cn1cnc2ccccc2c1=O)C1CCS(=O)(=O)C1 (centres undefined),-3,-37,2,-2.4,-9%,
CCn1c2ccccc2c2cc(NC(=O)CNC)ccc21,0,.,.,1.3,1%,
CCc1ccc(OCCCC(=O)Nc2ccc(N3CCOCC3)cc2)cc1,0,.,-4,-0.8,-11%,
CC(=O)N1CCN(c2ccc(NCc3cccs3)cc2)CC1,-2,-26,-17,.,-5%,
CCN(CC)S(=O)(=O)c1cccc(N2CC(O)=C(c3ccccc3)C2=N)c1,7,.,.,-4.3,2%,
CC1CCC(NCc2ccco2)CC1 (centres undefined),1,-10,7,0.7,10%,
COc1cccc(C2N(c3cccc(Cl)c3)C(=O)C3CCCN32)c1 (centres undefined),-6,-45,-2,1.8,-8%,
COc1ccc(CNC(=O)c2ccccc2SCC(=O)N2CCCC2)cc1OC,-3,.,.,-5.0,.,
Cn1c(=O)c2c(nc(CN3CCC(Cc4ccccc4)CC3)n2CCN2CCOCC2)n(C)c1=O,.,-3,11,.,2%,
Cc1c(C(=O)NCc2cccnc2)oc2ccccc12,-6,-31,-1,1.9,-7%,Arbovirus anti repeat=-4

# Reprinted at random: two entries already listed
SMILES,Mtb betalactam,YopH PTP inh,Arbovirus anti,RecA intein inh,Mtb H37Rv,others
CC(C)CN(C(=O)COC(=O)Cn1cnc2ccccc2c1=O)C1CCS(=O)(=O)C1 (centres undefined),-3,-37,2,-2.4,-9%,
CC1CCC(NCc2ccco2)CC1 (centres undefined),1,-10,7,0.7,10%,

# The listing continues.
SMILES,Mtb betalactam,YopH PTP inh,Arbovirus anti,RecA intein inh,Mtb H37Rv,others
COc1ccc(NC(=O)c2nc(C)c(C3(C)CC(c4cccnc4)=NO3)s2)cc1 (centres undefined),-10,.,.,-0.3,-9%,
O=C(O)CCCCCNS(=O)(=O)c1ccc(Cl)cc1,0,4,4,0.4,-3%,
COc1ccc(OC)c(NC(=O)Nc2nnc(N3CCCCC3C)s2)c1 (centres undefined),65,.,.,-7.1,31%,
CCOC(=O)c1ccc(NC(=O)CCS(=O)(=O)c2cccc3nonc23)cc1,83,.,.,-3.6,.,
Cc1ccc2oc(=O)c3cnn(CC(=O)N4CCN(c5ccccc5)CC4)c3c2c1,-11,-57,-2,-6.3,-1%,
CC(=O)c1sc(NC(=O)c2cccnc2Cl)nc1C,-10,.,5,-0.8,1%,
Cc1cc(=O)oc(C)c1C(=O)NC1CCCCCCC1,-1,.,7,-3.7,-3%,
O=C(CNC(=O)N1CC(=O)Nc2ccccc21)NCc1ccc(Cl)cc1,4,.,.,1.1,.,
CCN1CCC(C(N)=O)CC1,-1,-4,0,0.1,-1%,
COc1ccc(CCNC(=O)COC(=O)/C=C/c2ccc(OC)c(OC)c2)cc1,0,-1,-5,.,0%,
CCCC(=O)c1cc(F)c(N2CCOCC2)cc1C,2,-37,-1,-4.2,-1%,
Cc1ccc(CNc2nc(N)c([N+](=O)[O-])c(Nc3ccc(F)cc3)n2)cc1,-4,-6,5,0.9,-8%,
Cc1cc(=O)n2nc(N3CCCC(C(=O)NCc4ccccc4)C3)sc2n1 (centres undefined),2,.,.,-1.1,.,
Cc1ccc(N(CCC#N)C(=O)COC(=O)C2=COCCO2)cc1,-3,.,.,-0.2,.,
C/C(=N\Nc1nccnc1Cl)c1ccc(Br)cc1,-2,.,.,-1.6,.,
CC(=O)Nc1ccc(C(=O)NNC(=O)CCc2ccccc2)cc1,2,-39,0,0.3,-5%,
COc1ccc(S(=O)(=O)/N=C2\C=C(Nc3ccc(O)cc3)C(=O)c3ccccc32)cc1,15,.,.,93*,.,
CCOC(=O)Nc1sc2c(c1C#N)CCC(C)C2 (centres undefined),0,-22,-10,3.7,-3%,
CCOc1nc(S(=O)(=O)c2ccc(C)cc2)c(Cl)s1,2,-1,6,1.4,-4%,
[O-][n+]1onc2c1CCc1c-2nn(-c2ccccc2Cl)[n+]1[O-],0,-42,-20,7.7,-4%,
CC(C)NS(=O)(=O)c1ccc(CCC(=O)N2CCCCC2)cc1,6,.,4,4.3,-2%,
CCOC(=O)c1cc2c(=O)n3ccccc3nc2n(C(C)C)c1=NC(=O)c1ccco1,1,.,7,-188,1%,
CC1(C)CC(=O)C(C=NCCN2CCN(CC(=O)Nc3ccccc3)CC2)=C(O)C1,2,-24,0,2.8,-6%,
COC(=O)c1c(NC(=O)C2(C)Cc3ccccc3C(=O)O2)sc2c1CCCC2 (centres undefined),32,-7,-1,6.7,5%,
CC(=O)N1CCCc2cc(S(=O)(=O)NC(C(=O)NCc3ccc(C)cc3)C(C)C)ccc21 (centres undefined),11,-47,1,-2.6,2%,
O=C(NC1CC1)C1CC(=O)N(c2cccc(Cl)c2Cl)C1 (centres undefined),1,.,.,-0.9,.,
COc1cc(S(=O)(=O)NC2CCCCC2)ccc1Cl,-14,-6,5,.,1%,
CCc1nnc(NC(=O)c2cnccn2)s1,3,-20,10,-3.8,-8%,
Fc1cccc(Cl)c1CNCc1cccnc1,-11,.,.,-1.0,.,
O=C(Nc1ccc(Cl)cn1)c1ccc(Br)c(S(=O)(=O)N2CCCCC2)c1,-8,.,-10,1.8,3%,
COc1cc2c(C(=O)NCCCN3CC(C)CC(C)C3)cn(CC(C)C)c(=O)c2cc1OC (centres undefined),0,-32,5,1.7,0%,
CCN(CC)CCNC(=O)Cn1nc(-c2ccccc2)c2ccccc2c1=O,-3,-36,13,-0.2,6%,
O=C(O)c1cccc(Nc2nc(-c3ccccc3)nc3ccccc23)c1,6,.,.,-1.0,.,
CCCNC(=O)N1[C@H]2CC[C@@H]1C(C(=O)OC)=C(c1ccc(S(C)(=O)=O)cc1)C2,-2,.,.,-3.3,-6%,
CCn1c(C)nc2c(=O)oc3ccccc3c21,-11,-26,-5,1.9,-9%,
CC(C)c1ccc(OCC(=O)N(Cc2ccccc2)c2ccccn2)cc1,6,-22,-5,8.4,14%,
Cc1noc(C)c1COc1cccc(C(=O)OCCOc2ccc(F)cc2)c1,7,-35,-3,8.7,-7%,
Cc1nc2c(C#N)c[nH]n2c(=O)c1CCO,1,.,.,-7.6,.,
O=C(NNc1ccc([N+](=O)[O-])cc1)c1ccco1,98,.,.,-3.9,.,
O=C(CNS(=O)(=O)c1ccc(F)cc1)Nc1ccc(C(F)(F)F)cc1,40,-3,12,0.3,0%,
Cc1noc(NS(=O)(=O)c2ccc(NC(=O)C(F)(F)C(F)(F)C(F)(F)F)cc2)c1C,22,.,.,-1.9,.,
COc1ccc(S(=O)(=O)Nc2cc3c4c(c2)CCC(=O)N4CCC3)cc1C,9,.,.,3.8,.,
CCCCC(=O)N/N=C(/C)C1=C(C)C(C)(C)OC1=O,-2,.,-2,-5.4,1%,
COc1ccc(CCNS(=O)(=O)c2ccc3c(c2)NC(=O)CCS3)cc1OC,-6,.,.,-1.6,.,
O=C(Nc1cccc2cccnc12)c1ccc(Br)o1,27,4,3,6.0,1%,
CCc1c(C)nc2ncnn2c1N1CCCC(C(=O)Nc2cc(F)ccc2C)C1 (centres undefined),-3,2,3,0.5,-4%,
CC(=O)c1ccc(S(=O)(=O)N2CCN(C)CC2)cc1,5,.,-5,-3.2,-4%,
CN(CC1CCN(CCc2cccc(C(F)(F)F)c2)CC1)C(=O)c1ccccc1,0,.,.,-2.7,.,
COc1c(O)cccc1[C@H](O)C1CCN(CCc2ccc(F)cc2)CC1,-1,.,.,-3.0,-5%,
CCOC(=O)N1CCN(C(=O)C2CCCN(S(=O)(=O)c3c(C)cc(C)cc3C)C2)CC1 (centres undefined),3,.,.,3.2,.,

# New compounds follow
SMILES,Mtb betalactam,YopH PTP inh,Arbovirus anti,RecA intein inh,Mtb H37Rv,others
Cn1c(=O)c2c(ncn2CC(=O)OCC(=O)NC(c2ccccc2)c2ccccc2)n(C)c1=O,7,-14,-11,-7.5,1%,
CC(=O)Nc1nc(CCC(C)C)cc2c1c(=O)oc1ccccc12,16,-16,-11,1.3,4%,
O=C(CC1C(=O)NCCN1Cc1ccccc1C(F)(F)F)NC1CCC1 (centres undefined),?,.,.,0.6,.,
CCN=c1sc(C(=O)Nc2ccccc2)c(C)n1CC,1,.,0,-1.4,3%,
Cc1cccc(NC(=O)CCN2CCOCC2)c1,-4,-41,3,-8.1,-5%,
CCN1C(=O)[C@H]2[C@@H](c3ccc(C)cc3)N3C(=O)N(c4cccc(Br)c4)C(=O)[C@@]3(CC(C)C)[C@H]2C1=O,-8,.,.,5.1,.,
Clc1cccc(Cl)c1C[n+]1cccc2ccccc21,6,.,.,-1.5,.,
CCN1C=CC2=C(C#N)C(N)C(C#N)(C#N)C(c3ccccc3C(F)(F)F)C2C1 (centres undefined),-7,37,-8,-73,0%,
CC1(C(=O)O)C=CC2(CCCCC2)N1C(=O)c1ccccc1 (centres undefined),-6,-25,6,-1.6,-6%,
COc1cccc(-c2nnc(SCC(=O)N3CCOCC3)o2)c1,61,-42,4,2.9,3%,
COc1ccccc1CNS(=O)(=O)c1ccc2c(c1)N(C(C)=O)CC(C)S2 (centres undefined),-6,.,.,-2.4,.,
CCCOc1ccc(/C(O)=C2/C(=O)C(=O)N(CCCn3ccnc3)C2c2cccnc2)cc1 (centres undefined),-10,.,.,2.8,-11%,
CC(C)C(=O)NC(=S)/C=C1/N(C)c2ccccc2C1(C)C,-5,.,11,.,3%,
COc1ccc(S(=O)(=O)Nc2c(C(=O)O)[nH]c3ccc(OC)cc23)c(OC)c1,-3,.,.,16,.,
COc1ccc(N2CCN(c3ncnc4c3nnn4Cc3ccccc3Cl)CC2)cc1,-9,-14,-31,-2.5,-1%,
COc1ccc(S(=O)(=O)N2CCN(c3ccccc3OC)CC2)cc1C(=O)N1CCCCC1,-1,.,.,2.9,.,
CC1CCN(CC(O)Cn2c3ccccc3c3ccccc32)CC1 (centres undefined),2,.,.,-4.8,.,
CN(N)C(=S)Nc1ccc(F)cc1,-5,.,2,-0.7,5%,
CCCCn1c(N)c(N(CCOC)C(=O)c2ccc(S(=O)(=O)N3CCC(C)CC3)cc2)c(=O)[nH]c1=O,-6,.,.,0.5,.,
Cc1nn(-c2ccc(N3CCOCC3)nn2)c(C)c1CCC(=O)NCc1ccccc1F,6,.,.,-1.1,.,
C=CCNC(=O)C1CC(=O)N(c2ccc(OCC(=O)NCc3ccccc3)cc2)C1 (centres undefined),-7,-6,9,2.0,6%,
CCn1cc(C(=O)N[C@@H](C)C(=O)NCCCN2CCOCC2)c(=O)c2cc3c(cc21)OCO3,3,.,.,-1.0,.,
CCOC(=O)C1CCN(C(=O)Nc2cc(Cl)cc(Cl)c2)CC1,-9,.,.,1.7,9%,
CC(=O)CC(c1ccccc1)S(=O)(=O)c1ccc([N+](=O)[O-])cc1 (centres undefined),7,.,.,-0.6,.,
O=C(NC(=O)c1cnccc1C(F)(F)F)Nc1ccccc1,2,.,.,-4.2,-6%,
Cc1cc(C)n(-c2ccc(Cl)c(C(=O)O)c2)n1,-10,.,4,-0.5,0%,
O=C(Nc1ccc(O)cc1)/C(=C/c1ccco1)NC(=O)c1ccccc1,-7,.,.,-0.6,-2%,

# A portion of the library; the hit share may differ from the screen's.
